SARS PLpro yeast: blocks SARS-CoV papain-like protease in a yeast assay. S. cerevisiae expressing SARS-CoV PLpro, growth rescue; control for the full effect not named in the record. Potency, µM (series often up to 32.9 µM), without a hit: at the highest dose activity, positive = growth rescue. actives 0.19% (n = 330,000). AID 485353; further: 0% is about no effect; nearly all actives have a fitted effect of over 55% in size; growth read by luminescence after 48 h
RE007 growth inh: less growth of the S. pombe RE007 Vpr strain | actives 0.21% (n = 360,000) | Potency, µM (top dose mostly 92.2 µM), inactives show at the highest dose activity change, negative = less growth | AID 651644 | S. pombe RE007 Vpr strain, BacTiter-Glo ATP luminescence, 24 h; control for the full effect not named in the record; active = well fitted falling curve with a large enough effect; inconclusive = small, poorly fitted or top-dose-only effect; inactive = no such curve, though single readings can be large or run the other way;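 further: on the % scale 0 is the no-effect control and ±100 the full control effect; nearly all actives have a fitted effect of over 50% in size; the assay follows cell death caused by Vpr and the record does not say whether a fall means rescue or toxicity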
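Fission yeast RE007 carrying one integrated HIV-1 vpr copy, seeded at OD 0.01 in PMG+AL medium with 23 nL pinned compound. Grown 24 h at 30 degrees; viability read by BacTiter-Glo luminescence after 5 min.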
Lassa entry inh: inhibitors of Lassa virus binding or cell entry | Potency, µM (titrated, usually from 37.9 µM), without a hit: at the highest dose activity change, negative = inhibition, hits mostly inhibitors | Lassa virus pseudotype entry inhibition, cell reporter; control for the full effect not named in the record | actives 1.2% (n = 300,000) | AID 540256; active means well fitted inhibition curve with a large enough effect; inconclusive means small, poorly fitted or top-dose-only effect, or effect the other way; inactive means flat fitted curve, though single readings scatter; tested in HEK293 cells; further: on the % scale 0 is the no-effect control and ±100 the full control effect; nearly all actives have a fitted effect of over 50% in size; luciferase read-out
MARV entry inh: inhibitors of Marburg virus binding or cell entry; actives 1.8% (n = 300,000); AID 540276; Potency, µM (titrated, usually from 37.8 µM), inactives show at the top dose activity change, negative = inhibition, usual class: inhibitors; Marburg virus pseudotyped entry inhibition, cell reporter; control for the full effect not named in the record; about a third of the inactives were read at about 46 µM; active = well fitted inhibition curve with a large enough effect; inconclusive = small, poorly fitted or top-dose-only effect, or effect the other way; inactive = flat fitted curve, though single readings scatter; tested in HEK293 cells; about a fifth of its hits are not listed in these tables; further: on the % scale 0 is the no-effect control and ±100 the full control effect; luciferase read-out
NS1 inh: blocks influenza NS1 protein function | S. cerevisiae slowed by influenza A NS1, growth recovery by OD600 | Potency, µM (doses to about 46.1 µM), inactives show at the highest dose activity, positive = more growth | actives 0.4% (n = 270,000); further: actives are rising curves; nearly all actives have a fitted effect of over 50% in size
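OD600 was taken as the measure of yeast growth restored by compound in an NS1-expressing S. cerevisiae strain. Cells had been washed out of glucose medium and diluted 1:100 into galactose -URA medium, pH 6.0.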
Cruzain Triton: inhibitors of Trypanosoma cruzi cruzain with detergent. purified cruzain, Z-FR-AMC fluorescence, 0.01% Triton. AID 1478. Potency, µM, without a hit: max response, negative = inhibition, hits mostly inhibitors. actives 0.43% (n = 200,000); active means well fitted curve in the direction sought with a large enough effect; inconclusive means small, poorly fitted or top-dose-only effect, or another doubt; inactive means no such curve, though single readings can be large; an effect the other way counts as inactive or inconclusive;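 further: plate controls were neutral wells for no effect and buffer without enzyme for full effect; nearly all actives have a fitted effect of over 40% in size; top concentration of the series not given in the record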
Target sequence (P25779 123-467 limits assumed): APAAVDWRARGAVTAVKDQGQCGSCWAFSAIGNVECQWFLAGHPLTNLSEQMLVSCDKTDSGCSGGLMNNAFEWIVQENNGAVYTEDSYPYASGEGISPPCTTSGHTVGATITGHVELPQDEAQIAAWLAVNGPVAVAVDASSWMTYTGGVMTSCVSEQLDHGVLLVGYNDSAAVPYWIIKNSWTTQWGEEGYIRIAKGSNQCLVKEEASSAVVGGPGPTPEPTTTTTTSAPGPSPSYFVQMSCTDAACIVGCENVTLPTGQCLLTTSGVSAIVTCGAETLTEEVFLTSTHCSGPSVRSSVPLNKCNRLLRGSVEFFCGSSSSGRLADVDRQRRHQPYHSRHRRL
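Detergent-containing arm of a paired screen for aggregation-based inhibition: 0.01% Triton X-100 present. Cruzain at 1.5 nM cleaved 2 uM Z-FR-AMC at pH 5.5 with 5 mM DTT; AMC fluorescence gain over 60 s measured activity.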
StopGo reporter: FMDV 2A StopGo reporter, luciferase signal; human cells with a luciferase reporter of 2A StopGo recoding; control for the full effect not named in the record; Potency, µM (top dose mostly 57.9 µM), for the others: at the highest dose signal change, negative = less light; actives 1.2% (n = 410,000); active = well fitted falling curve with a large enough effect; inconclusive = small, poorly fitted or top-dose-only effect; inactive = no such curve, though single readings can be large or run the other way; tested in HEK293T cells; further: on the % scale 0 is the no-effect control and ±100 the full control effect; nearly all actives have a fitted effect of over 45% in size; luciferase light after 4 h
Cruzain noTriton: inhibitors of Trypanosoma cruzi cruzain without detergent; purified cruzain, Z-FR-AMC fluorescence, no detergent; Potency, µM, inactives show max response, negative = inhibition, usual class: inhibitors; actives 2.3% (n = 200,000); AID 1476; active means well fitted curve in the direction sought with a large enough effect; inconclusive means small, poorly fitted or top-dose-only effect, or another doubt; inactive means no such curve, though single readings can be large; an effect the other way counts as inactive or inconclusive;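 further: plate controls were enzyme without inhibitor for no effect and buffer without enzyme for full effect; nearly all actives have a fitted effect of over 40% in size; top concentration of the series not given in the record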
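Purified cruzain at 1.5 nM, pre-incubated 15 min with compound at room temperature in 100 mM sodium acetate pH 5.5, 5 mM DTT, 0.00005% Triton X-100. Reaction started with 2 uM Z-FR-AMC; AMC fluorescence increase over 60 s gives rate.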
The depositor's hits bear a star; ? = inconclusive; · = no result given; & = joins results of further samples; [ ] = remark or other dose. Unless noted, the call rests on the fitted dose curve; in most records, active means well fitted rising curve with a large enough effect; inconclusive means small, poorly fitted or top-dose-only effect; inactive means no such curve, though single readings can be large or run the other way. Potency means the concentration at half of the fitted maximal effect.

item	structure	SARS PLpro yeast	RE007 growth inh	Lassa entry inh	MARV entry inh	NS1 inh	Cruzain Triton	StopGo reporter	Cruzain noTriton
1	COc1ccc(OCc2cc(C(=O)N3CCCC(O)C3)no2)c2ccccc12 (stereo not given)	0%	-6%	-16%	1%	-20%	·	16%	·
2	COc1ccc(-c2nc(/C=C3\C(C)=Nc4ccccc43)c(O)o2)cc1	-7%	-1%	-11%	-18%[46.1 µM]	·	·	6%	·
3	CC(=O)N1c2ccc(S(=O)(=O)N(C)CC(=O)NC3CCCC3)cc2CC1C (stereo not given)	2%	1%	24%[46.1 µM]	6%[46.1 µM]	-1%	·	-6%	·
4	O=C(O)/C=C/C(=O)NCCc1ccc(Cl)cc1	-4%	-15%	·	·	3%	·	-16%	·
5	O=C(NCCc1ccccc1)C(c1cccs1)N(C(=O)c1csnn1)C1CC1 (stereo not given)	4%	2%	6%	0%	-10%	3.7%	-8%	-2%
6	COc1cc(-c2nc3nc[nH]n3c2Nc2ccc(C(C)C)cc2)ccc1O	·	·	?	13%[46.1 µM]	·	-16%	-12%	?
7	COc1ccc(-c2nnn(CC(=O)N(CCCN3CCOCC3)C(C(=O)NC3CCCC3)c3ccc(C)o3)n2)cc1 (stereo not given)	-1%	0%	8%[46.1 µM]	?	0%	·	-18%	·
8	COc1ccc(NC(=O)CCCc2nnc3n(CCC(C)C)c(=O)c4sccc4n23)cc1Cl	·	·	7%[46.1 µM]	·	·	-2.7%	-22%	23%
9	COc1ccc(CC2C(=O)OC(C)(C)OC2=O)c(Cl)c1OC	-2%	-7%	-12%[46.1 µM]	-16%[46.1 µM]	3%	·	-7%	·
10	CCc1ccc(-c2cc(C)no2)cc1S(=O)(=O)NCCc1ccccc1	-22%	13%	·	·	-49%	·	35%[activator]	·
11	Cc1cccc(/C=C/c2nc3ccccc3c(=O)[nH]2)c1	1%	14%	3.5µM*	?	2%	·	38%[activator]	·
12	CCC(=O)NCCc1nc2cc(NC(=O)Nc3ccccc3)ccc2n1C	1%	-11%	·	·	-3%	·	40%[activator]	·
13	CC1CCN(S(=O)(=O)c2cccc(C(=O)N(C)C3CCS(=O)(=O)C3)c2)CC1 (stereo not given)	-1%	24%	-4%	-2%	3%	3.3%	-11%	8%
14	CCCn1c(=O)c2c(nc3n2CCN3c2ccc(C)cc2)n(C)c1=O	·	·	-2%[46.1 µM]	·	·	-4.2%	-4%	4%
15	COC(=O)C[N+](C)(C)C/C=C\c1ccccc1	0%	-9%	10%	0%[46.1 µM]	3%	·	6%	·
16	O=C(Nc1cccc(O)c1)c1noc2c1CCCCC2	-16%	-24%	?	?	-58%	-3.0%	·	0%
17	O=C(COc1ccccc1Cl)N1CCNC1=O	0%	6%	6%	6%[46.1 µM]	·	·	9%	·
18	Cc1ccc(NC(=O)COC(=O)c2ccc3c(c2)NC(=O)C2CCCN32)cc1C (stereo not given)	6%	·	·	·	?	-5.6%	·	?
19	COc1cc2ccccc2cc1C(=O)Nc1ccc2oc(-c3ccc(F)cc3)nc2c1	·	·	22%[46.1 µM]	·	·	-2.1%	-14%	8%
20	O=C(COC(=O)[C@@H]1CCCN1S(=O)(=O)c1ccccc1F)c1ccccc1	-8%	18%	-10%[46.1 µM]	-25%[46.1 µM]	-2%	·	18%	·
21	COc1ccc(C)cc1NC(=O)CSc1ccc(-c2ccco2)nn1	-8%	2%	4%	-22%	-24%	·	-28%	·
22	COC(=O)c1cc(NC2c3ncccc3C(=O)N2Cc2ccccc2)cc(C(=O)OC)c1 (stereo not given)	1%	11%	12%	-3%	-32%	1.7%	8%	21%
23	O=C(COc1ccc([N+](=O)[O-])cc1)N(Cc1ccccc1)Cc1ccccc1	22%	2%	2%	4%	17%	-6.3%	-17%	3%
24	CCOc1ccc(NC(=O)N2CCC(C(=O)c3ccc(F)cc3)CC2)cc1	-6%	-2%	28%	3%	-7%	5.5%	16%	-4%
25	CN(C(=O)Cc1ccc(Cl)c(Cl)c1)C(CN1CCCC1)c1cccc(OCC(=O)O)c1 (stereo not given)	·	-4%	6%	-1%&-1%&-2%&-1%&-1%	-8%	-2.3%	-22%&8%	7%
26	O=C(/C=C/c1cccc([N+](=O)[O-])c1)NCCSc1ccccc1	-30%	-10%	5%	1%	-4%	-1.7%	-10%	-19%
27	O=Cc1cn(CC(=O)N2CCOCC2)c2ccccc12	2%	8%	3%	-11%	-5%	0.1%	·	-2%
28	COc1ccc(C2C(C#N)=C(N)Oc3cc(C)n(Cc4ccncc4)c(=O)c32)cc1 (stereo not given)	10%	-2%	10%	5%	-7%	2.3%	-24%	-7%
29	C=CC[N+](C)(C)CCN1C(=O)C2C(c3ccccc3)C=CC(c3ccccc3)C2C1=O (stereo not given)	5%	5%	-22%[46.1 µM]	9%[46.1 µM]	6%	·	-5%	·
30	Nc1ccc(C(=O)NCC(=O)O)cc1	·	8%[18.4 µM]	·	·	·	-8.0%&-1.0%	-3%&0%	-13%&-9%
31	CCCCn1c(CCC(=O)O)nc2c1c(=O)[nH]c(=O)n2CCC	5%	6%	10%	18%	3%	7.5%	1%	-1%
32	N=c1sccn1CC(=O)NCCc1ccc(Cl)cc1	3%	19%	8%	?	2%	-3.1%	-18%	-10%
33	OCCC1CN(Cc2c(O)ccc3ccccc23)CCN1CCc1ccccc1 (stereo not given)	0%	-17%	-3%[46.1 µM]	4%[46.1 µM]	-1%	·	-11%	·
34	O=C(Cc1ccccc1)Nc1sc2c(c1C(=O)Nc1ccccc1)CCCCC2	·	·	22%[46.1 µM]	·	·	-2.3%	0%	-12%
35	CCOC(=O)C(=O)N/N=C/c1cccc(Br)c1	-1%	-10%	-9%	-5%[46.1 µM]	2%	·	6%	·
36	Cc1[nH]c2ccc(C(=O)OCCN(C)C)cc2c1C	6%	-8%	1%	?	-33%	2.5%	-3%	-7%
37	COc1ccccc1N1CCN(CC(=O)NCC2CCCO2)CC1 (stereo not given)	-39%	34%	10%	5%	2%	1.8%	-8%	7%
38	CC(=O)Nc1ccc(Nc2cc(C(C)C)nc3c(-c4ccccc4)c(C)nn23)cc1	-7%	-17%	·	·	-57%	·	?	·
39	C=CCN(c1ccccc1)S(=O)(=O)c1cccc(C(=O)Nc2ncccc2C)c1	3%	-19%	-2%	?	·	·	1%	·
40	Cc1ccc2[nH]c(=O)c(CN(CC3CCCO3)C(=S)Nc3ccccc3)cc2c1 (stereo not given)	25%	-1%	?	?	5%	-8.9%	?	18%
41	CCOc1cc(/C=N/NC(=O)C(C)Sc2ccccc2)ccc1O (stereo not given)	-1%	-15%	·	·	1%	·	-14%	·
42	Cc1ccc(C(=O)CSc2nc3ccccc3c(=O)[nH]2)cc1C	1%	2%	-20%[46.1 µM]	?	-5%	·	5%	·
43	COc1ccc(OCc2cc(C(=O)NC3CCOCC3)no2)c2ccccc12	-5%	-13%	1%[46.1 µM]	18%[46.1 µM]	-10%	·	8%	·
44	COc1ccccc1N(C)S(=O)(=O)c1ccc(C(=O)OCC(=O)N2CCC2)cc1	0%	-6%	?	?	·	·	-4%	·
45	CC(=O)n1nc(-c2ccc(C)cc2)nc1NCc1ccco1	-1%	7%	-23%	17%[46.1 µM]	·	·	64%[activator]	·
46	COc1ccc2c(CC(=O)OCC(=O)Nc3ccc(S(N)(=O)=O)cc3)coc2c1	1%	1%	27%[46.1 µM]	7%[46.1 µM]	-3%	·	0%	·
47	Cc1ccsc1C(=O)OCc1nc2ccsc2c(=O)[nH]1	0%	2%	7%	10%	·	·	25%	·
48	CCOc1ccc(C(=O)NCc2ccc3c(c2)OCO3)cc1OCC	3%	5%	·	·	8%	·	-12%	·
49	Cc1ccc(N2CC(C(=O)Nc3cccnc3)CC2=O)cc1C (stereo not given)	-1%	1%	0%	-12%[46.1 µM]	4%	·	9%	·
50	COCCN(C(=O)CN1CCN(S(=O)(=O)c2ccc(F)cc2)CC1)c1c(N)n(Cc2ccccc2)c(=O)[nH]c1=O	19%	5%	0%&4%	6%&-17%	-7%	0.3%	-24%	-14%
51	O=C(O)c1ccccc1C(=O)c1ccc(Sc2ccc(Cl)cc2)c([N+](=O)[O-])c1	1%	5%	11%[46.1 µM]	-2%[46.1 µM]	16%	·	-2%	·
52	CCN(CC)S(=O)(=O)c1ccc(N2CCCCS2(=O)=O)cc1	·	·	?	·	·	-0.4%	44%[activator]	?
53	O=C(NC1CCC(O)CC1)c1ccc2c(c1)S(=O)(=O)N=C1CCCCCN12 (stereo not given)	7%	6%	6%	4%	·	·	13%	·
54	O=C(O)c1ccc(N2C(=O)/C(=C/C=C/c3ccccc3)SC2=S)cc1	0%	-16%	·	·	7%	·	-24%	·
55	O=C(Nc1ccc(F)c(Cl)c1)NC1CC1	-3%	-4%	·	·	?	·	-11%	·
56	CCCCP(=O)(CCCC)c1ccccc1C(=O)O	1%	12%	3%	-7%	-2%	6.6%	-14%	2%
57	COCCCNC(=O)CSc1c2c(nc3ccc(Cl)cc13)CCCC2	-3%	4%	?	?	·	-16%	28µM*	?
58	Cc1ccc(C(=O)O)cc1NC(=O)c1nsc2ccccc12	·	·	29%[46.1 µM]	3%[46.1 µM]	·	-4.2%	-5%	-8%
59	Nc1nc(SC23CC4CC(CC(C4)C2)C3)ns1	3%	5%	10%	1%	-2%	·	10%	·
60	Cc1noc(NS(=O)(=O)c2ccc(NC(=O)CCC3CCCC3)cc2)c1C	-20%	-13%	0%	1%	-44%	2.3%	-9%	2%
61	COc1ccccc1CNC(=O)CN(C)S(=O)(=O)c1cccc2cccnc12	0%	-9%	0%	1%[46.1 µM]	-2%	·	-19%	·
62	O=C1CS(=O)(=O)C2(C(=O)N(Cc3ccccc3)c3ccccc32)N1c1ccc(F)c(Cl)c1 (stereo not given)	·	·	-20%[46.1 µM]	·	·	-1.7%	0%	2µM*
63	Nc1nonc1-c1nc2ccccc2n1Cc1ccc(F)cc1Cl	-2%	·	·	·	1%	-0.5%	-27%	-14%

Source: PubChem BioAssay (National Center for Advancing Translational Sciences (NCATS))
